Source: PubChem BioAssay
GIV Gai3 FP = inhibitors of GIV peptide binding to Galpha-i3, primary screen, biochemical, fluorescence polarization, FITC-GIV GBA peptide, rat Galphai3; Guanine nucleotide-binding protein G(i) subunit alpha-3 (Rattus norvegicus), P08753; 90 min; active compounds read low; scaled: aluminum fluoride 0%, vehicle 100%; percent of control (FP), % (no concentration beside the values); hit rate 0.42% among 210,000; AID 1224905, 2016;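 active = replicate mean at 85% of control or lower, very high polarization wells dropped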;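 note: wells of about 15 µL received 100 nL stock; the first replicate is given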
Target sequence (P08753 whole entry, looked up): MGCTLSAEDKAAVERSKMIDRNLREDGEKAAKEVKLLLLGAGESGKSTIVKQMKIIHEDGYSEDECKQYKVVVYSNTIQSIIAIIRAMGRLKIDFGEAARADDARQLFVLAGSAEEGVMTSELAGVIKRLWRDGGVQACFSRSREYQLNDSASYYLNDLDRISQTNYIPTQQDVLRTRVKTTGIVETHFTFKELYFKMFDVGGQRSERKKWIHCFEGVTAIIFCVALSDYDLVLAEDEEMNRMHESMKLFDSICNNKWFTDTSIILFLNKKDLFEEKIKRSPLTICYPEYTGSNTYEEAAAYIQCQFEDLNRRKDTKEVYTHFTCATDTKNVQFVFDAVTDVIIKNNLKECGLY
HCMV UL50-53 inh = inhibitors of HCMV UL50-UL53 interaction, biochemical, HTRF; normalized percent inhibition; AID 1918969, 2023; hit rate 0.15% among 190,000; inhibition, % (test concentration not listed);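 active = both replicates at 50% or more, plus weaker picks with an unusually low signal ratio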;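 note: stock transfer was 100 nL into about 20 µL; 0% = negative control wells and 100% = wells with untagged competitor protein; inactives centre near -12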
Sa growth 42C = S. aureus growth inhibition at 42 and 30 °C, primary screen, LtaS inhibitor project, RN4220, two temperatures; relative growth, % (concentration not given with the values); OD600, 20 h, 42 °C; active compounds read low; hit rate 0.53% among 170,000;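 active = growth at 42 °C up to 50% and 20 or more points under that at 30 °C, or under 10% at both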;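 note: 300 nL library stock went into each well; scaled to the means of positive and negative controls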
Sa growth 42C second temp = also measured in Sa growth 42C; calls as there; relative growth, %; measured here: growth at 30 °C;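 optical density after 20 h as mean of two plates; 100% = untreated growth and lower means inhibition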
* = called active by the depositor; x = not tested or not shown; & = joins results of further samples.

SMILES,Sa growth 42C second temp,GIV Gai3 FP,Sa growth 42C,HCMV UL50-53 inh
Cc1cc(C)nc(NS(=O)(=O)c2ccc(NC(=O)COc3ccc(Cl)cc3C)cc2)n1,83.2,102.4,107.2,-3.1
COc1ccc(-n2ccnc(OC)c2=O)c(C)c1,x,100.0,x,-74.5
CCN(CC)C(=O)CSc1nc2ccccc2c(=O)[nH]1,83.2,x,96.4,-20.4
O=C(Cc1ccc(Cl)cc1)OC1CCOC1=O (stereo not given),97.8,x,97.2,2.3
CCN(CC)S(=O)(=O)c1ccc2c(c1)nc(CN1CCN(C(=O)Nc3ccccc3)CC1)n2C,x,99.1,x,-24.5
CCOC(=O)c1ccc(NC(=O)c2ccc(-c3cccc(Cl)c3C)o2)cc1,92.8,111.8,104.2,-59.6
Cc1cc(-c2nc(-c3ccnn3C(=O)Nc3cccc(Cl)c3)cs2)no1,64.3,100.6,96.1,-37.6
Cc1cc(C)c(C#N)c(SCC(O)COc2ccc(Cl)cc2)n1 (stereo not given),104.0,x,87.7,-5.5
O=C(O)C1CCCN(CCC=C(c2ccccc2)c2ccccc2)C1 (stereo not given),x,97.3,x,4.2&-19.3
Fc1ccccc1/C=C1\CCCC2=C1Nc1ncnn1C2c1ccccc1F (stereo not given),59.4,95.2,95.9,x
O=C1N(c2ccc(-c3ccccc3)cc2)C(c2ccc(Cl)cc2)N2CCCN12 (stereo not given),x,107.0,x,16.0
Cc1noc(C)c1CCNC(=O)c1cnc(N2CCOCC2)nc1,82.0,106.8,106.1,-31.5
CNC(=O)c1oc2ccc3c(c2c1C)C(=O)CC(C)(c1ccc(Cl)cc1)O3 (stereo not given),x,105.6,x,30.3
Cc1ccc2c(c1)sc1nc(=O)n(-c3ccc(Cl)c(Cl)c3)c(=O)n12,31.0,104.2,49.1,-31.5
O=C1CCCc2c1sc1nc3n(c(=O)c21)CCCCC3,x,103.5&101.0,x,-98.3
O=C(Nc1cccc(Cl)c1Cl)c1cc(S(=O)(=O)NCc2ccc3c(c2)OCO3)ccc1F,90.9,100.6,123.9,x
Cc1cc(-c2csc(NC(=O)C3CC4C=CC3C4)n2)c(C)n1Cc1ccco1 (stereo not given),82.8,x,98.6,-6.8
COc1ccccc1-c1csc(-c2nnn(-c3ccc(C)cc3)c2N)n1,x,111.6,x,-7.8
COc1ccc(-c2noc(CN3CCC(C)CC3)n2)cc1,x,103.0,x,4.4
CC1(CC(=O)O)SC(=O)NC1=O (stereo not given),88.3,104.4,108.4,0.2
CCN1C(=O)C2C(c3ccccc3O)NC(Cc3c[nH]c4ccccc34)(C(=O)O)C2C1=O (stereo not given),109.5,102.5,117.5,-7.9
CC1CCN(c2nc3c(c(=O)[nH]2)CCNC3)CC1,86.5,101.7,79.6,-11.9
Cc1ccc(S(=O)(=O)N=C2C=CC(=NS(=O)(=O)c3ccc(C)cc3)C=C2)cc1,75.0,108.8,96.2,x
CCOC(=O)c1ccc(N2C(=O)c3n[nH]c(C)c3C2c2ccc(C(C)(C)C)cc2)cc1 (stereo not given),91.2,113.1,109.7,-18.0
COc1ccc(N2CC3=C(C2=O)C(c2ccc(Br)cc2)NC(=O)N3C)cc1 (stereo not given),99.4,105.2,110.2,7.0
Cc1ccc(S(=O)(=O)N2CCC(C(=O)O)CC2)s1,87.5,100.4,114.4,x
CCC(C)n1c(SCSc2nc3c(c(=O)n(C)c(=O)n3C)n2C(C)CC)nc2c1c(=O)n(C)c(=O)n2C (stereo not given),x,103.7,x,-6.3
Cc1ccccc1OC(=O)OCC(C)C,98.0,96.0,104.8,-6.3
COc1cc(Br)ccc1-n1c(=O)c2ccccc2c2ccccc2c1=O,x,107.4,x,-2.5
COC(=O)c1noc(C(=O)OC)c1O,94.1,x,75.8,-44.8

Record cards, as listed above.
Cc1cc(-c2csc(NC(=O)C3CC4C=CC3C4)n2)c(C)n1Cc1ccco1 (stereo not given) is entered as Sa growth 42C second temp: 82.8; GIV Gai3 FP: x; Sa growth 42C: 98.6; HCMV UL50-53 inh: -6.8
CCOC(=O)c1ccc(NC(=O)c2ccc(-c3cccc(Cl)c3C)o2)cc1 is entered as Sa growth 42C second temp: 92.8; GIV Gai3 FP: 111.8; Sa growth 42C: 104.2; HCMV UL50-53 inh: -59.6
CCN(CC)S(=O)(=O)c1ccc2c(c1)nc(CN1CCN(C(=O)Nc3ccccc3)CC1)n2C is entered as Sa growth 42C second temp: x; GIV Gai3 FP: 99.1; Sa growth 42C: x; HCMV UL50-53 inh: -24.5

(next part)
SMILES,Sa growth 42C second temp,GIV Gai3 FP,Sa growth 42C,HCMV UL50-53 inh
COc1ccc(OC)c(Nc2nc3ccccc3n3c(C)nnc23)c1,87.5,97.4,114.0,-6.9
COc1ccc(-c2cc3c(=O)n(CC(=O)N4CCN(c5ccc(F)cc5)CC4)ncn3n2)cc1,x,100.6,x,-16.2
COc1ccc(CN(CCC(c2ccc3c(c2)OCO3)c2ccccc2OC)C(C)=O)cc1 (stereo not given),42.2,107.7,74.2,-55.1
COc1ccc(-n2c(SCC(=O)c3ccccc3)nc3c([nH]c4ccccc43)c2=O)cc1,82.7,96.7,101.2,x
Cc1ccc(Cn2cc(CCC(=O)NC3CCCCC3)c3ccccc32)cc1,99.1,106.9,92.9,x
COc1ccc(N(C(=O)COc2ccccc2OC)S(=O)(=O)c2ccc(Cl)cc2)cc1,86.1,105.2,106.2,-54.2
NC(=O)c1ccccc1NC(=O)c1ccoc1,77.6,103.0,112.6,-11.5
COC(=O)C(C)Oc1ccc2c(=O)c(-c3ccc(Cl)cc3)coc2c1 (stereo not given),89.0,102.7,94.0,-7.2
CCc1ccccc1NS(=O)(=O)c1ccc(-n2cccn2)cc1,90.8,98.9,94.5,x
COc1ccccc1CNC(=O)C1(c2cccs2)CCOCC1,85.3,93.3,122.3,x
COc1cccc(C2C3=C(CC(c4ccccc4O)CC3=O)Nc3onc(C)c32)c1OC (stereo not given),x,101.2,x,11.3
CCC1=NN(C(=O)C(C)C)C(O)(c2ccc(Br)cc2)C1 (stereo not given),83.2,101.7,85.5,x
O=C(c1ccc(S(=O)(=O)N2CCCCC2)cc1)N(c1ccc(Cl)cc1)C1C=CS(=O)(=O)C1 (stereo not given),x,98.9,x,-15.9
CCOC(=O)C1C(=O)C=C(c2ccc(F)cc2)CC1c1ccc(CC)cc1 (stereo not given),85.3,95.7,93.3,x
Cc1cccc(C)c1NC(=O)C1NC(=O)CC1c1ccccc1 (stereo not given),85.8,104.8,95.6,x
Cc1nc(N2CCOCC2)c2c(C(=O)NCc3cccc(Cl)c3)c(C)oc2n1,79.7,98.6,104.0,x
COC(=O)c1sccc1N=CC1=C(O)CC(C)(C)CC1=O,94.8,x,97.9,1.8
O=S(=O)(Nc1ccccn1)c1cccs1,80.1,107.6,111.4,-15.0
CCCc1ccc(C(=O)NC(=O)c2ccccc2O)cc1,60.8,102.7,96.7,25.4
O=C(Nc1ccc(N2CCN(c3ccccc3)CC2)cc1C(=O)O)c1ccccc1Cl,x,103.7,x,-39.7
CC(C)n1nc(C(=O)Oc2ccc3c(c2)OCO3)c2ccccc2c1=O,94.3,x,98.8,-2.4
COc1ccc(-c2noc(NC3CCCC3)n2)cc1,x,97.3,x,1.9
CC(C)c1ccc(NC(=O)c2cccs2)cc1,81.2,100.1,91.2,-13.3
CCCC1=Nc2cc(C(=O)N3CCC(C(N)=O)CC3)ccc2Sc2ccccc21,95.9,101.1,80.8,0.9
Cc1cc(NCCCN2CCOCC2)nc(-c2ccccc2O)n1,72.1,x,136.0,8.3
CCOC(=O)c1ccc(N2CC(C)(C)C2=O)cc1,x,103.8,x,-7.7
Cn1c(=O)c(=O)n(C)c2cc(N3CCCCC3)c(NS(=O)(=O)c3ccc(Br)s3)cc21,54.6,103.1,106.7,-62.0
O=C(CN1C(=O)c2ccccc2C1=O)N1CCN(CCN2C(=O)c3cccc4cccc(c34)C2=O)CC1,x,103.7,x,-40.4
COc1ccc(N(C(=O)c2ccccc2OC)S(=O)(=O)c2ccc3c(c2)n(C)c(=O)n3C)cc1,x,97.1,x,-14.9
COc1cc2nc(CN3CCOCC3)n(CC(=O)NCC(F)(F)F)c(=O)c2cc1OC,94.7,x,96.1,-25.3

SMILES,Sa growth 42C second temp,GIV Gai3 FP,Sa growth 42C,HCMV UL50-53 inh
CC(Sc1nnc(N)s1)C(=O)Nc1nccs1 (stereo not given),94.4,101.1,96.5,-18.2
C=C1SC(=Nc2ccccc2Cl)N(C(=O)c2cc(OC)c(OC)c(OC)c2)C1(C)C,81.8,100.0,90.4,-19.0
CCN1CCN(CCNC(=O)c2ccc(NC(=O)C3=CSCCO3)cc2)CC1,89.1,101.7,105.0,-34.3
CCOc1ccc(-c2nc(CSc3nc(-c4cccnc4)cc(=O)[nH]3)c(C)o2)cc1,x,103.7,x,-26.0
CCOC(=O)c1c(C)n(-c2ccccc2)c2ccc(OC(=O)c3ccc(OCC)c(OCC)c3)cc12,103.1,101.1,100.2,12.5
Cn1c(=O)c2[nH]cnc2n(-c2ccccc2)c1=O,98.2,108.4,109.6,-34.8
CSc1c2ccccc2cc[n+]1C,82.6,94.4,103.1,x
CCn1c2ccccc2c2cc(C(N)=O)ccc21,83.0,104.5,86.2,-23.3
Cc1nnc(N2CCC(C(=O)NCc3ccc(F)cc3)CC2)c2nn(-c3ccc(Cl)cc3)c(C)c12,93.2,106.3,89.3,x
Cc1ccc2oc(-c3ccccc3)cc(=NCCN3CCOCC3)c2c1,53.8,102.0,92.6,x
O=C(NCCCN1CCCCC1)c1ccc2nc(N3CCCCC3)sc2c1,93.5,102.5,95.5,x
C#CCN1CCOCC1,90.7,107.7,81.9,10.1
CCOc1ccc(CCNc2nc(-c3ccc(OC)c(OC)c3)no2)cc1,78.0,100.1&105.7,96.8,2.7
CCCCC(CC)CNC(=O)c1ccc(Cn2c(=O)[nH]c3cc(OC)c(OC)cc3c2=O)cc1 (stereo not given),105.9,103.9,104.2,-1.2
Cc1cc(=O)oc2cc(NC(=O)CCC(=O)O)ccc12,89.9,98.4,95.7,-25.5
CCOC(=O)c1c(N2C(=O)C3C4C=CC(O4)C3C2=O)sc2c1CCCC2 (stereo not given),103.8,107.9,119.0,1.0
COc1ccc(C(=O)OCc2ccccn2)cc1,86.1,x,106.0,-9.2
COC(=O)C1=C(N)OC2=C(C(=O)CC(c3ccccc3)C2)C1c1cc(OC)c(OC)c(OC)c1 (stereo not given),x,110.1,x,-5.2
O=C(Nc1ccccc1)Nc1c2c(nc3c1CCC3)CCCC2,97.0,x,102.9,4.3
O=C(COc1ccccc1)Nc1sc2c(c1C(=O)Nc1ccccc1)CCCCC2,96.2,113.8,98.9,14.9
CCc1cc2c(=O)n(-c3ccccc3)cnc2s1,92.2,102.6,108.5,-2.7
COc1cc2c(cc1OC)CN(C(=O)c1ccc(N3C(=O)C(C)(C)CS3(=O)=O)cc1)CC2,x,109.4,x,-8.6
CCCCNC(=O)C1CCN(S(=O)(=O)c2cc(Br)cc3c2N(C(=O)CC)CC3)CC1,88.2,103.7,88.2,-13.9
Cc1ccc2c(c1)N(CC(=O)N1CCCc3ccccc31)C(=O)CO2,111.8,104.0,101.3,11.4
NC(=O)C1CCN(C(=O)Cc2ccc(-c3ccccc3)cc2)CC1,91.8,x,100.5,-30.2
CCOc1ccc(NC(=O)CSc2ccc3ccccc3n2)cc1,88.0,105.3,90.4,-45.8
C=C1N(C)c2cc(CN3C(=O)c4ccccc4C3=O)ccc2C1(C)C,1.9,x,32.1,-26.0
COC(=O)CCC(=O)N1CCN(c2nc3ccc(C)cc3cc2-c2noc(-c3ccccc3)n2)CC1,x,104.5,x,-28.1
